Mtb MbtI inh: inhibitors of Mycobacterium tuberculosis siderophore enzyme MbtI | P9WFX0 | purified MbtI enzyme, fluorescence intensity read-out | inhibition, %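 (about 17 µg/mL by stock and volumes)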 | hit rate 0.89% among 100,000 | AID 493033;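 active = above 50% in both replicates, above 80% if mildly self-fluorescent; inactive = the rest, strongly fluorescent compounds included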;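 note: 0% = mean of negative and 100% = mean of positive controls; one replicate is shown; some compounds called inactive have numbers as strong as hits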
Target sequence (P9WFX0 whole entry, looked up): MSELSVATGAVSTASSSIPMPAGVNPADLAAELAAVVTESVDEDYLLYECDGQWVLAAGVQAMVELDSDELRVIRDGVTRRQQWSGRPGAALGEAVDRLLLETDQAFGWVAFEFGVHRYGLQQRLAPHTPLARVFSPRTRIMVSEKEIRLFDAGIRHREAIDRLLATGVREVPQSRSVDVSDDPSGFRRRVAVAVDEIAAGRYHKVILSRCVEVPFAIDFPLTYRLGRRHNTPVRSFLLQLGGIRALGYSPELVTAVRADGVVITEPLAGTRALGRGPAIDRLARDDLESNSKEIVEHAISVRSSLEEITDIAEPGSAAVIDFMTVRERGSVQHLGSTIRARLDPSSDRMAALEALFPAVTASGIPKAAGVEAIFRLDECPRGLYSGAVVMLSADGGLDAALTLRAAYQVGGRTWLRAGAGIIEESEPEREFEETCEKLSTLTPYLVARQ
PV pol inh: poliovirus RNA polymerase inhibition. P03300. poliovirus polymerase elongation, fluorescence polarization; active compounds read low. % elongation, % (compound at 16.7 µg/mL). hit rate 0.66% among 150,000; in the data active = % elongation below about 90%; note: some results filed as inactive read as strong as hits
Mtb MenB inh: blocks the Mycobacterium tuberculosis MenB enzyme; P9WNP5; MenB enzyme assay, absorbance read-out; some hits fall short of the stated cut; inhibition, %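 (about 12 µg/mL by stock and volumes)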; hit rate 0.43% among 100,000; AID 540299;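 active = mean of two replicates above 30%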;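 note: 0% = no compound and 100% = wells with inactive enzyme; the first replicate is given; strong numbers were not always called active; inactives centre near -10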
Target sequence (P9WNP5 whole entry, looked up): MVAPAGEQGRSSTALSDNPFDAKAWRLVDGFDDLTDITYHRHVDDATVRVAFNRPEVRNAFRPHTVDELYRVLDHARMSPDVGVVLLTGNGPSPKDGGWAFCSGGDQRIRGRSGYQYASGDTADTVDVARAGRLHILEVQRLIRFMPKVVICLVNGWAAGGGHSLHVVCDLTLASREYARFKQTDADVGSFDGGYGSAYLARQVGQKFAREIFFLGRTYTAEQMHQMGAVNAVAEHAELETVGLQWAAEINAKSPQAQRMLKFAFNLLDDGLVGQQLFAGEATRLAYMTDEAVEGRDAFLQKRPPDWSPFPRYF
PV pol inh intensity: also measured in PV pol inh; calls as there; % elongation; measured here: total intensity read-out; formula for this scale not given here;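 total fluorescence in place of polarization; lower means less elongation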
The depositor's hits bear a star; / = no result given; & = joins results of further samples.

SMILES | Mtb MbtI inh | PV pol inh | PV pol inh intensity | Mtb MenB inh
COc1ccc2c(c1)CCC/C2=N\NC(N)=S | 38 | 103 | 96 | -31
Cn1cnc2cc(NC(=O)COc3ccccc3)ccc21 | 0 | 102 | 101 | 3
O=C(c1ccccc1)N1CCN(C(=O)C2(c3ccccc3)CC2)CC1 | -9 | 104 | 101 | -19
CCn1c(SCC(=O)Nc2ccccc2OC)nc2c([nH]c3ccccc32)c1=O | -2 | 101 | 101 | -5
CC(=O)Nc1ccc(NC(=O)Nc2cccs2)cc1 | 25 | 99 | 102 | -3
COc1ccc(Sc2cccs2)cc1 | / | 110 | 109 | -12
CCS(=O)(=O)N1CCN(S(=O)(=O)c2ccc(C)cc2)CC1 | -18 | 100 | 105 | -14
COCc1cc(C)n(CC(=O)N2CCC(C)CC2)c(=O)c1C#N | 88 | 99 | 99 | 0
Oc1ccc(C(=S)N2CCN(c3cccc(Cl)c3)CC2)cc1 | 59* | 102 | 97 | -40
CCc1c(C(=O)NCCN(C)C)csc1C | -17 | 101 | 105 | -3
Cc1cc(C(=O)CSc2ccc3c(c2)OCCO3)c(C)n1C | 2 | 105 | 102 | -18
CCc1ccc2c(c1)C1(NN=C(c3ccccc3)S1)C(=O)N2 (configuration not stated) | 29 | 104 | 101 | -112
CC1=CC(=O)C(N(CCO)CCO)=CC1=O | 6 | 104 | 102 | -80
CCn1c(C(=O)O)c(S(=O)(=O)c2ccc(Cl)cc2)c2ccccc21 | 10 | 100 | 104 | 9
COc1ccc(NC(=O)c2cccnc2SC)cc1 | -10 | 103 | 107 | 7
COc1ccc(N2C(=O)C(C)C(Cc3ccc(C)cc3)C2=O)cc1 (configuration not stated) | -7 | 102 | 103 | -17
CCC(Sc1nc2sc(C(=O)OC)c(C)c2c(=O)n1N)C(=O)Nc1cccc(OC)c1 (configuration not stated) | -2 | 104 | 105 | -25
Cn1nc(C(C)(C)C)cc1C(=O)NCc1ccc(-c2cccs2)cc1 | 43 | 103 | 107 | -12
COc1cccc(-c2nn(Cc3ccccc3)cc2CNCCCn2ccnc2)c1 | -6 | 97 | 101 | -5
CNC(=O)CC1Nc2ccccc2NC1=O (configuration not stated) | / | 99 | 105 | -3
NC(=O)/C=C/c1ccco1 | 41 | / | / | -17
O=c1cc(-c2ccccc2)nc(SCCOc2ccccc2F)[nH]1 | / | 105 | 110 | -6
COc1cc(OC)c(NC(=O)CCc2ccccc2)cc1Cl | 3 | 98 | 95 | /
CC1CCCCN1S(=O)(=O)c1ccc(NC(=O)Cn2cnc3ccccc3c2=O)cc1 (configuration not stated) | 0 | 102 | 102 | -73
CC(NC(=O)c1ccccc1)C(c1cccs1)N1CCOCC1 (configuration not stated) | -6 | 100 | 103 | -4
CN1CCCN(C(=O)c2ccncc2)CC1 | -8 | 101 | 99 | -27
CC1(C)Cc2ccccc2-c2nc(NN)[nH]c(=O)c21 | -66 | 101 | 99 | 11
Cc1cc(C)cc(OCC(=O)OCC(=O)c2ccc3c(c2)OCO3)c1 | 2 | 104 | 102 | -36
Cc1ccc(CNc2cc(-c3nn4c(C)nnc4s3)ccc2C)s1 | -3 | 103 | 104 | -19
O=C(COn1nnc2ccccc21)Nc1ccccc1C(=O)Nc1ccc2c(c1)OCO2 | -12 | 101 | 110 | -11

Profiles, quoted from the list. Order of screens: Mtb MbtI inh, PV pol inh, PV pol inh intensity, Mtb MenB inh
Profile of CCC(Sc1nc2sc(C(=O)OC)c(C)c2c(=O)n1N)C(=O)Nc1cccc(OC)c1 (configuration not stated) → -2, 104, 105, -25
Profile of Cc1cc(C)cc(OCC(=O)OCC(=O)c2ccc3c(c2)OCO3)c1 → 2, 104, 102, -36
Profile of Cn1nc(C(C)(C)C)cc1C(=O)NCc1ccc(-c2cccs2)cc1 → 43, 103, 107, -12

Following part:
SMILES | Mtb MbtI inh | PV pol inh | PV pol inh intensity | Mtb MenB inh
CCCCCCOc1ccc(/C=C(\C#N)C(=O)NCc2ccco2)cc1 | -1 | 103 | 106 | -45
CCn1c(SCC(=O)Nc2nc(C)c(C)s2)nnc1C(C)NC(=O)c1ccccc1F (configuration not stated) | 1 | 104 | 105 | 14
CC(C)(C)c1ccc(-c2[nH]nc(NC(=O)c3ccccc3Cl)c2Br)cc1 | -9 | 103 | 113 | -9
NC(=O)C1CCN(C(=O)CSc2nc3ccccc3s2)CC1 | 18 | 101 | 103 | -2
O=S(=O)(NC1CC2CCC1C2)c1ccc(Cl)cc1 (configuration not stated) | 15 | 103 | 102 | 11
COc1ccc(/C=C2\SC(=O)N(CCNC(=O)c3cc(S(=O)(=O)N(C)C)ccc3N3CCCC3)C2=O)cc1 | -1 | 97 | 103 | 4
COc1ccc(-c2c(-c3ccc(OC)c(OC)c3)c(C)n(C)c2C)cc1OC | -6 | 117 | 125 | -11
COc1ccc2c(c1)C13CCCC[C@@H]1C(C2)N(C)CC3 (some centres not stated) | -1 | 100 | 99 | 13
CC(C)n1nccc1N(Cc1ccc(Cl)cc1)S(=O)(=O)c1ccccc1 | -6 | 101 | 102 | -34
O=C(CCc1ccc(-n2cnc3cccnc32)cc1)NCCc1cccs1 | -23 | 104 | 116 | -17
Cc1nnc(SC(C)C(=O)Nc2ccc(N3CCOCC3)cc2)n(N)c1=O (configuration not stated) | -36 | 101 | 100 | -3
Cc1cn2c(=O)c3c4c(sc3nc2s1)CCCC4 | -2 | 98 | 97 | -8
CCOc1ccc(/C=C2\CC/C(=C\c3ccc(OCC)cc3)C2=O)cc1 | -4 | 101 | 102 | -17
CC(C)N(CCC(C(N)=O)(c1ccccc1)c1ccccn1)C(C)C (configuration not stated) | -7&-18 | 101&101 | 103&102 | -4&5
CN(C)CCNC(=O)c1ccc(N2CCCCS2(=O)=O)cc1 | 0 | 108 | 104 | -24

Two entries drawn at random from the list so far, as already listed:
SMILES | Mtb MbtI inh | PV pol inh | PV pol inh intensity | Mtb MenB inh
CC(C)N(CCC(C(N)=O)(c1ccccc1)c1ccccn1)C(C)C (configuration not stated) | -7&-18 | 101&101 | 103&102 | -4&5
CN(C)CCNC(=O)c1ccc(N2CCCCS2(=O)=O)cc1 | 0 | 108 | 104 | -24

(further entries)
SMILES | Mtb MbtI inh | PV pol inh | PV pol inh intensity | Mtb MenB inh
COc1ccc(/C=C2\Oc3ccccc3N(CC(=O)N3CCN(c4ncccn4)CC3)C2=O)cc1Br | 134 | 101 | 103 | -8
CCc1cccc(C)c1NC(=O)COC(=O)C1CC(=O)N(c2ccc(OC(C)C)cc2)C1 (configuration not stated) | / | 102 | 106 | -9
COc1ccc(CNC(=O)c2[nH]c(C)c(C(=O)NC3CCCCC3)c2C)cc1 | -4 | 103 | 105 | -22
CC12CCC3(C)OCC(COC(=O)Nc4ccccc4)(CO1)N23 (configuration not stated) | -7 | 106 | 101 | -68
CCOC(=O)NNc1nc2ccccc2o1 | -5 | 103 | 102 | -10
NS(=O)(=O)c1ccc(-c2ccc(/C=N/NC(=O)CSc3ccccc3F)o2)cc1 | -12 | 99 | 102 | -3
O=C(CN1CCSC1=O)Nc1cccc(-c2nnc3n2CCCCC3)c1 | 0 | 105 | 106 | -14
COc1ccc2ncc(C(=O)O)c(NCCO)c2c1 | -22 | 100 | 101 | 2
O=C(CSC1=NCCS1)NCc1ccc2c(c1)OCO2 | 24 | 99 | 101 | -3
COc1ccc(S(=O)(=O)NC2CCCCC2)cc1 | 3 | 103 | 99 | 12
S=C(NNc1ccccc1)c1ccccc1 | 45 | 100 | 91 | -67
Cc1onc(-c2c(Cl)cccc2Cl)c1NC(=O)NCC(c1ccc[nH]1)C(F)(F)F (configuration not stated) | 7 | 102 | 102 | 14
COc1ccc(N2C(=O)/C(=C\c3ccc(C(C)C)cc3)C(=O)NC2=S)cc1 | 26 | 104 | 103 | -65
COc1cccc(-c2nnc3sc(NC(C)=O)nn23)c1 | 54 | 99 | 102 | -56
CC1=CN2C(=NC(C(F)(F)F)(C(F)(F)F)N=C2c2ccco2)C=C1 | 3 | 99 | 104 | -15
CCOC(=O)C1CCCN(C(=O)c2cc3ccccc3oc2=O)C1 (configuration not stated) | -4 | 100 | 101 | -24
O=C(NC1CCCCC1)Oc1ccccc1-c1nnc2n1CCCCC2 | -27 | 101 | 106 | /
Cc1nnc2sc(-c3ccc(F)cc3)nn12 | -6 | 102 | 100 | 10
CN1CCCN(C(=O)c2cccs2)CC1 | -1 | 101 | 102 | 2
O=C(Cc1ccccc1)N/N=C1/CCS(=O)(=O)c2ccc(F)cc21 | 10 | 106 | 103 | 14
CCOC(=O)C1=C(N)c2ccccc2CC1(C)CC (configuration not stated) | 20 | 100 | 101 | -11
Cc1nn(-c2ccc(F)cc2)c(C)c1/C=C/C(=O)NC(C)(C)C | -7 | 100 | 99 | -15
COC(=O)c1ccc2c(=O)[nH]c(COC(=O)c3ccccc3SCC(=O)N3CCCC3)nc2c1 | -4 | 107 | 112 | -29
O=C(Oc1ccccc1OC(=O)N1CCCCC1)N1CCCCC1 | -2 | 104 | 101 | -1
Cc1ccc(S(=O)(=O)C[C@H]2O[C@@H](n3cc(I)c(=O)[nH]c3=O)C[C@@H]2O)cc1 | 2 | 100 | 104 | -4
Cc1ccc(C(C)C)c(OCCNC(=O)Nc2ccc(Br)cc2)c1 | / | 102 | 106 | -15
Cc1cc(=O)[nH]c(NN=C2CCC(C(C)(C)C)CC2)n1 (configuration not stated) | -8 | 108 | 117 | -16
CCCn1c2c(c(O)c(C(=O)Nc3ccccc3F)c1=O)CCCC2 | -3 | 101 | 102 | 48*
CCc1ccc(/C=C2\CCc3ccccc3C2=O)cc1 | 6 | 102 | 102 | -19
CC1=C/C(=N\NC(=O)c2cc(C)oc2C)CC1 | 3 | 101 | 108 | -11

Rewritten with each value named: 4 of the compounds above
Cc1nnc2sc(-c3ccc(F)cc3)nn12
  Mtb MbtI inh = -6
  PV pol inh = 102
  PV pol inh intensity = 100
  Mtb MenB inh = 10

CN1CCCN(C(=O)c2cccs2)CC1
  Mtb MbtI inh = -1
  PV pol inh = 101
  PV pol inh intensity = 102
  Mtb MenB inh = 2

O=C(Cc1ccccc1)N/N=C1/CCS(=O)(=O)c2ccc(F)cc21
  Mtb MbtI inh = 10
  PV pol inh = 106
  PV pol inh intensity = 103
  Mtb MenB inh = 14

CCOC(=O)C1=C(N)c2ccccc2CC1(C)CC (configuration not stated)
  Mtb MbtI inh = 20
  PV pol inh = 100
  PV pol inh intensity = 101
  Mtb MenB inh = -11

Following part.
SMILES | Mtb MbtI inh | PV pol inh | PV pol inh intensity | Mtb MenB inh
CC(C)(C)C(=O)NC1CCSC1=O (configuration not stated) | -11 | 102 | 102 | -3
CCc1ccc2c(c1)CCCN2C(=O)c1ccccc1C(=O)O | -4 | 102 | 101 | -14
CCOCCC(=O)Nc1cc(C)ccn1 | -4 | 103 | 101 | -18
CCOC(=O)N1CCC(NC(=O)c2ccc3c(c2)sc2nc(-c4ccc(OC)cc4)cn23)CC1 | -18 | 103 | 104 | 10
O=C1C2(Cc3ccccc3)CN3CN(C2)CC1(Cc1ccccc1)C3 | -9 | 101 | 103 | 2
O=C(CCN1C(=O)c2ccccc2S1(=O)=O)N1CCN(c2ccccc2)CC1 | 10 | / | / | -11
O=C(C1=Cc2sc3c(c2CS1)CCCC3)N1CCCC1 | 99* | 102 | 103 | -14
Cc1cc2[nH]c(=O)cc(C)n2n1 | 116 | 104 | 102 | -52
COc1ccc(-c2csc(C)n2)cc1 | -9 | 101 | 101 | 2
Cc1nc2nc(N)nn2c(C)c1CCC(=O)OCc1cccc(Cl)c1 | -11 | 105 | 107 | -34
O=C(c1ncoc1-c1ccccc1)N(Cc1ccccn1)Cc1ccccn1 | -5 | 104 | 94 | -16
Cc1ccc(NCCO)cc1 | -2 | 100 | 100 | -8
O=C(NCc1ccc(S(=O)(=O)NCc2ccccc2)s1)c1ccccc1 | -10 | 101 | 109 | -14
CCCCCCSc1ncc(C#N)c(N)n1 | 193 | 101 | 105 | -8
O=C(/C=C/c1ccco1)OCc1c(Cl)cccc1Cl | 4 | 102 | 108 | /
COC(=O)c1ccc2nc[nH]c2c1 | -2 | 103 | 110 | 4
CCC(=O)N(Cc1cccnc1)Cc1cc2cc(OC)ccc2[nH]c1=O | 89 | 102 | 102 | -8
Cc1cc(N2C(=O)c3c(c(C)n(C)c3C)C2C(=O)NC2CCC(C)CC2)ccc1Br (configuration not stated) | -2 | 102 | 104 | -10

Assay outcomes (PubChem)
